ClpP mod: qHTS Assay for Activators of ClpP; Potency, µM (highest dose often 57.5 µM), inactives show at the highest dose activity change, negative = active; AID 651965, 2013; hit rate 1.9% among 340,000; purified B. subtilis ClpP, FRET peptide cleavage, 20 min; active = well fitted falling curve with a large enough effect; inconclusive = small, poorly fitted or top-dose-only effect; inactive = no such curve, though single readings can be large or run the other way; note: potency is the fitted concentration of half-maximal effect; the source files actives as falling curves though it sought activators and does not explain the sign; nearly all actives have a fitted effect of over 65% in size; many hits overshoot -100%
Target sequence (P80244 whole entry, looked up): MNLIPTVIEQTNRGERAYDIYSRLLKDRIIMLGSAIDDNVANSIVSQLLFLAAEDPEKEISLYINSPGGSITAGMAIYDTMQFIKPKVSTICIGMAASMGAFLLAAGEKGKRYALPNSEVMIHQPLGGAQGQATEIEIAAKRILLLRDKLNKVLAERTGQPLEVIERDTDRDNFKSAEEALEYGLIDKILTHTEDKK
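Buffer: 100 mM Tris/HCl pH8, 100 mM KCl, 0.05% low protease BSA, 2.5% glycerol, 0.01% Tween-20. ClpP 10 microg/mL final; 20 min RT; delta FRET normalized to ADEP and DMSO controls.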
gsp antagonist: qHTS for Antagonists of gsp, the Etiologic Mutation Responsible for Fibrous Dysplasia/McCune-Albright Syndrome: qHTS; hit rate 0.4% among 340,000; Potency, µM (titrated, usually from 76.9 µM), inactives show top-dose activity change, negative = inhibition, actives largely listed as inhibitors; gsp-mutant cells, cAMP HTRF, 30 min; control for the full effect not named in the record; active = falling curve of any shape with a large fitted effect; inconclusive = falling curve, mostly with a smaller effect; inactive = flat or rising curve; cell line not stated here;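 note: intracellular cAMP measured with PDE inhibitor Ro 20-1724 present during compound exposure; potency is the fitted concentration of half-maximal effect; % is set by controls: 0 for no effect and ±100 for the full control effect; nearly all actives have a fitted effect of over 65% in size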
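Measurement of cellular cAMP by homogeneous time-resolved fluorescence following a 30 min compound exposure at 37C. The PDE inhibitor […] was present throughout; the assay buffer was DPBS with 0.05% BSA and 0.005% Tween 20.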
D2 PAM: Beta-Arrestin HTS for Positive Allosteric Modulators of the Human D2 Dopamine Receptor: Potentiators. DiscoveRx D2 beta-arrestin cells, luminescence, 90 min; 100% = 57 uM dopamine signal. hit rate 0.23% among 360,000. potentiation, % (test concentration not listed). D(2) dopamine receptor (Homo sapiens), P14416; active = potentiation of 50% or more; inconclusive = 30% to 50%; inactive = 30% or less;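 note: compound concentration not given in the record; tested on top of an EC20 dose of dopamine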
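D2 cells co-treated with compound plus 50 nM dopamine (EC20) for 90 min at 37 deg C to detect potentiation. Beta-arrestin recruitment was read as enzyme-fragment luminescence after 1 h at ambient temperature. Full response was set by 57 uM dopamine.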
Sfp PPTase inh: qHTS Assay for Inhibitors of Bacillus subtilis Sfp phosphopantetheinyl transferase (PPTase) | hit rate 3.5% among 310,000 | AID 1490, 2009 | 4'-phosphopantetheinyl transferase ffp (Bacillus subtilis), Q9F4F7 | Biochemical Sfp PPTase activity, qHTS | Potency, µM, inactives show max response, negative = inhibition, actives largely listed as inhibitors; active = well fitted inhibition curve with a large enough effect; inconclusive = small, poorly fitted or top-dose-only effect, or another doubt; inactive = no such curve, though single readings can be large or run the other way;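 note: the enzyme is Sfp with the accession as filed and its product quenches rhodamine fluorescence; potency is the fitted concentration of half-maximal effect; 0% = enzyme reaction without inhibitor and -100% = no enzyme wells; top concentration of the series not given in the record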
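Fluorescence-quenching assay: 15 nM Sfp-PPTase preincubated 15 min at room temperature with compound, then 5 uM rhodamine-CoA and 12.5 uM BHQ-2-labelled YbbR peptide added. Fluorescence (ex 525/em 598 nm) read at start and after 30 min; difference gives rate.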
Menin-MLL FL inh: qHTS Assay for Inhibitors Targeting the Menin-MLL Interaction in MLL Related Leukemias: Competition With Fluorescein Labeled MLL-derived Peptide. 290,000 tested, under 10 active. FP activity change, % at 61.4 µM. Fluorescence polarization, fluorescein-MLL peptide displacement from menin; inconclusive = falling polarisation curve, or a change in total fluorescence; inactive = total fluorescence flat and polarisation flat or rising; no compound was filed as active; the % refers to the polarisation; negative = inhibition;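 note: % of control where 0% means no effect; inhibitors lower the polarisation; unlabelled MLL peptide was the positive control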
TRPV1 potentiator: HTS Assay for Compounds that Act as Potentiators of the Vanilloid Receptor 1. hit rate 0.02% among 320,000. potentiation, % at 8.33 µM. Transient receptor potential cation channel subfamily V member 1 (Homo sapiens), Q8NER1. TRPV1-expressing cells, Fluo-8 calcium influx, capsaicin EC20 potentiation; host cell line not named in the record; control for the full effect not named in the record; active means potentiation above 80%; inconclusive means 30% to 80%; inactive means below 30%; note: 0% is about no effect
Target sequence (Q8NER1 whole entry, looked up): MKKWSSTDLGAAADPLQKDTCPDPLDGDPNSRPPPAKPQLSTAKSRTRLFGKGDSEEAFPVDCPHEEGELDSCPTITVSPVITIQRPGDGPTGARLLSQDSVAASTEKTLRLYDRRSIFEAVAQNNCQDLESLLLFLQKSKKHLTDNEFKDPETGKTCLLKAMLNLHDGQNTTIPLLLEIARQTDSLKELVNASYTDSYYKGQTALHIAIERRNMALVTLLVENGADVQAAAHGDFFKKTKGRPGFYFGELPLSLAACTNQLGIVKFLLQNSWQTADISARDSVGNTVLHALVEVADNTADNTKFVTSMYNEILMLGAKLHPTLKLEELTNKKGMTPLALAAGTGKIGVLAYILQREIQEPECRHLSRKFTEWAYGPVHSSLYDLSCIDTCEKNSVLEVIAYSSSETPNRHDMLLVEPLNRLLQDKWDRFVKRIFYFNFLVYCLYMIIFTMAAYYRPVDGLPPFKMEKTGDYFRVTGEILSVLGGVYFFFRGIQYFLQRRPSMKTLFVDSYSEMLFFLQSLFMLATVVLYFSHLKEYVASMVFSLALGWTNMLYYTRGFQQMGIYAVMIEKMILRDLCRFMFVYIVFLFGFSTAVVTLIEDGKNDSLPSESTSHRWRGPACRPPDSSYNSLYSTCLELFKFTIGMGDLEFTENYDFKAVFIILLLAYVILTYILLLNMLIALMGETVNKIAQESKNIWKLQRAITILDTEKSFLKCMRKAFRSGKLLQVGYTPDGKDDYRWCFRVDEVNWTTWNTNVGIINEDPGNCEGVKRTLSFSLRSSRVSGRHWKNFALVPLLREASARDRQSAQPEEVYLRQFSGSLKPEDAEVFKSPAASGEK
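Fluo-8 calcium influx in TRPV1-expressing cells, kinetic read (ex 480/em 520 nm). Compound added and read 3 min for agonist activity, followed by capsaicin at EC20 final and 2 min further read for enhancement.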
gsp ag: qHTS for Agonist of gsp, the Etiologic Mutation Responsible for Fibrous Dysplasia/McCune-Albright Syndrome: qHTS; hit rate 0.13% among 340,000; Potency, µM (titrated, usually from 76.9 µM), inactives show at the highest dose activation (cAMP increase), usual class: activators; gsp mutant cells, cAMP HTRF, 30 min; control for the full effect not named in the record; AID 624287, 2012; active = well fitted activation curve with a large enough effect; inconclusive = small, poorly fitted or top-dose-only effect, or another doubt; inactive = no such curve, though single readings can be large or run the other way; cell line not stated here;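 note: phosphodiesterase inhibitor Ro 20-1724 added with compounds to block cAMP breakdown; potency is the fitted concentration of half-maximal effect; nearly all actives have a fitted effect of over 60% in size; about a fifth of the inactives were tested at one dose only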
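Cells stably selected in G418 were plated at 2000/well, grown 16-24 hr, then given compounds in DMSO with the PDE inhibitor […] (300 uM solution added) for 30 min at 37C; cAMP was read by HTRF.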
* hit, by the source's call; & = joins results of further samples; [ ] = remark or other dose.

Results for CCC1CN(C(=O)N2CCC(C(=O)NCc3cccc(F)c3)CC2)c2ccccc2O1 (stereo unspecified) ?
ClpP mod: -2.3%; gsp antagonist: -21%; D2 PAM: -8; Sfp PPTase inh: 19%; TRPV1 potentiator: -14; gsp ag: inconclusive

Results for Cc1c(-c2ccccc2)oc2nc3c(c(=O)n(C)c(=O)n3C)n12 ?
Sfp PPTase inh: 15%; Menin-MLL FL inh: 1.2; TRPV1 potentiator: 3

Results for Cc1nnc(NC(=O)CCCCCN2C(=O)C3C4C=CC(C4)C3C2=O)s1 (stereo unspecified) ?
ClpP mod: 0.4%; gsp antagonist: 50µM*; D2 PAM: -4; Sfp PPTase inh: 27%; Menin-MLL FL inh: 1.0; TRPV1 potentiator: 1; gsp ag: -119%

Results for O=[N+]([O-])c1ccccc1/C=C/CN1CCN(Cc2ccc3c(c2)OCO3)CC1 ?
ClpP mod: -3.1%; gsp antagonist: 7%; D2 PAM: -78; Sfp PPTase inh: -12%; Menin-MLL FL inh: 0.6; TRPV1 potentiator: -3; gsp ag: 7%

How did CCCn1c(=S)[nH]c2cc(Cl)ccc21 do in these assays?
ClpP mod: -0.2%; gsp antagonist: 8%; D2 PAM: 0; Sfp PPTase inh: 10%; Menin-MLL FL inh: 1.1; TRPV1 potentiator: 0; gsp ag: 21%

Results for Cc1ccsc1C(=O)NNC(=O)C1CCCCC1C(=O)O (stereo unspecified) ?
ClpP mod: -1.3%; gsp antagonist: 10%; D2 PAM: -8; Sfp PPTase inh: 18%; Menin-MLL FL inh: 4.3; TRPV1 potentiator: 15; gsp ag: 7%

Results for CN(C)C(CNS(=O)(=O)c1ccc(Cl)cc1)c1cccnc1 (stereo unspecified) ?
ClpP mod: 0.9%; gsp antagonist: 10%; D2 PAM: -1; Sfp PPTase inh: 0%; Menin-MLL FL inh: 6.0; TRPV1 potentiator: 12; gsp ag: -17%

How did O=C(c1ccc(Br)o1)N1CCN(c2ccc3nnc(-c4ccccc4)n3n2)CC1 do in these assays?
ClpP mod: -8.8%; gsp antagonist: -16%; D2 PAM: -6; Sfp PPTase inh: -16%; Menin-MLL FL inh: 1.1; TRPV1 potentiator: -10; gsp ag: inconclusive

Results for Cc1ccc(Cc2nc(-c3cccc(C)c3)no2)cc1 ?
ClpP mod: -0.5%; gsp antagonist: 2%; D2 PAM: 10; Sfp PPTase inh: 13%; Menin-MLL FL inh: -0.5; TRPV1 potentiator: 13; gsp ag: -30%

What do the screens show for `COc1ccc([N+](=O)[O-])cc1NC(=O)COC(C)=O`?
ClpP mod: -2.1%; gsp antagonist: 3%; D2 PAM: -1; Sfp PPTase inh: 6%; Menin-MLL FL inh: 6.1; TRPV1 potentiator: -1; gsp ag: 6%

How did Cc1cccc(NC(=O)C2Cc3ccccc3CN2C(=O)OCc2ccccc2)c1C (stereo unspecified) do in these assays?
ClpP mod: 0.9%; gsp antagonist: -16%; D2 PAM: -27; Sfp PPTase inh: -2%; Menin-MLL FL inh: 11; TRPV1 potentiator: -1; gsp ag: 15%

Results for COc1ccc(-c2nnn(CC#N)n2)cc1OC ?
ClpP mod: -5.9%; gsp antagonist: -7%; D2 PAM: -2; Sfp PPTase inh: 18%; Menin-MLL FL inh: 7.8; TRPV1 potentiator: -8; gsp ag: -11%

How did N#CC(=NCc1cccnc1)C1=C(O)c2ccccc2C1=O do in these assays?
gsp antagonist: -3%; D2 PAM: -6; Sfp PPTase inh: -6%; Menin-MLL FL inh: -2.4; TRPV1 potentiator: 19; gsp ag: -19%[15.4 µM]

How did COCCNC(=S)N/N=C(\C)c1ccc(-n2ccnc2)cc1 do in these assays?
ClpP mod: -0.5%; gsp antagonist: 4%; D2 PAM: -5; Sfp PPTase inh: -6%; Menin-MLL FL inh: 0.9; TRPV1 potentiator: -2; gsp ag: 19%

How did CCN(CCn1cccn1)C(=O)c1cc(COc2cc(C)ccc2C)on1 do in these assays?
ClpP mod: -2.0%; gsp antagonist: -4%; D2 PAM: -3; Sfp PPTase inh: 2%; TRPV1 potentiator: -9; gsp ag: inconclusive

Results for COc1ccc(C(=O)/C=C/c2ccc(OC)c(COc3ccccc3F)c2)cc1 ?
ClpP mod: 0.7%; gsp antagonist: -10%; D2 PAM: -11; Sfp PPTase inh: -12%; Menin-MLL FL inh: 2.3; TRPV1 potentiator: -20; gsp ag: -25%

What do the screens show for `CC(C)Oc1ccccc1-c1cc(C(=O)N/N=C/c2cccnc2)c2ccccc2n1`?
ClpP mod: -5.0%; gsp antagonist: -17%; D2 PAM: -6; Sfp PPTase inh: 14%; TRPV1 potentiator: -11; gsp ag: 18%[15.4 µM]

How did COC(=O)c1cccc(-n2c(CCC(=O)O)ccc2-c2cccs2)c1 do in these assays?
ClpP mod: -0.6%&-0.3%; gsp antagonist: -6%; D2 PAM: -6; Sfp PPTase inh: 4µM*; Menin-MLL FL inh: inconclusive; gsp ag: inconclusive

What do the screens show for `CCCCNC(=S)NNC(=O)c1cc(-c2cccnc2)nc2ccccc12`?
ClpP mod: 6.7%; gsp antagonist: inconclusive; D2 PAM: -63; Sfp PPTase inh: 10%; Menin-MLL FL inh: 5.1; TRPV1 potentiator: 11; gsp ag: -47%[inhibitor]

How did c1ccc(-c2nc(NCCCn3ccnc3)c3ccccc3n2)cc1 do in these assays?
gsp antagonist: -17%; D2 PAM: -10; Sfp PPTase inh: 6%; Menin-MLL FL inh: 0.5; TRPV1 potentiator: -2; gsp ag: -13%

How did O=C(NNC(=O)C12CC3CC(CC(C3)C1)C2)c1cnccn1 do in these assays?
ClpP mod: 0.9%; gsp antagonist: 18%; D2 PAM: -3; Sfp PPTase inh: -28%; Menin-MLL FL inh: 7.0; TRPV1 potentiator: -8; gsp ag: -23%

How did Cc1onc(-c2ccccc2)c1C(=O)Nc1sc2c(c1C#N)CCC(C)C2 (stereo unspecified) do in these assays?
ClpP mod: inconclusive; gsp antagonist: -9%; D2 PAM: -3; Sfp PPTase inh: -2%; Menin-MLL FL inh: 2.8; TRPV1 potentiator: -5; gsp ag: -1%

What do the screens show for `C#CCNC(=O)C1=C[C@H](c2coc3ccccc3c2=O)[C@@H](CCCO)[C@H](OCC)O1`?
ClpP mod: -2.2%; gsp antagonist: 1%; D2 PAM: -11; Sfp PPTase inh: 2%; Menin-MLL FL inh: -0.1; TRPV1 potentiator: 6; gsp ag: 21%

How did CNc1cc(N2CCCC2)ccc1[N+](=O)[O-] do in these assays?
gsp antagonist: -19%; D2 PAM: -7; Sfp PPTase inh: 8%; Menin-MLL FL inh: -1.7; TRPV1 potentiator: inconclusive; gsp ag: 15%[15.4 µM]

Continued; the last two above are carried over.
What do the screens show for `C#CCNC(=O)C1=C[C@H](c2coc3ccccc3c2=O)[C@@H](CCCO)[C@H](OCC)O1`?
ClpP mod: -2.2%; gsp antagonist: 1%; D2 PAM: -11; Sfp PPTase inh: 2%; Menin-MLL FL inh: -0.1; TRPV1 potentiator: 6; gsp ag: 21%

How did CNc1cc(N2CCCC2)ccc1[N+](=O)[O-] do in these assays?
gsp antagonist: -19%; D2 PAM: -7; Sfp PPTase inh: 8%; Menin-MLL FL inh: -1.7; TRPV1 potentiator: inconclusive; gsp ag: 15%[15.4 µM]

What do the screens show for `O=C1CNC(=S)N1CCc1ccc(O)c(O)c1`?
gsp antagonist: 7%; D2 PAM: -5; Sfp PPTase inh: 45µM*; Menin-MLL FL inh: 1.0; TRPV1 potentiator: 12; gsp ag: inconclusive

How did Clc1ccc(-c2cc(-c3nnc4n3CCCCC4)c3ccccc3n2)cc1 do in these assays?
ClpP mod: inconclusive; gsp antagonist: 2%; D2 PAM: -8; Sfp PPTase inh: -19%; Menin-MLL FL inh: 3.2; TRPV1 potentiator: 22; gsp ag: -57%[inhibitor]

What do the screens show for `Cc1cc(C(=O)COC(=O)c2ccc[nH]c2=O)c(C)n1-c1ccc(F)cc1`?
ClpP mod: 1.1%; gsp antagonist: -27%; D2 PAM: 0; Sfp PPTase inh: 7%; Menin-MLL FL inh: 3.6; TRPV1 potentiator: 3; gsp ag: -25%

What do the screens show for `Oc1ccc(-c2csc(-c3ccccc3)n2)cc1O`?
ClpP mod: -2.9%; gsp antagonist: -2%; D2 PAM: 15; Sfp PPTase inh: 56µM*; Menin-MLL FL inh: 0.8; TRPV1 potentiator: 2; gsp ag: -18%

How did COc1ccc(Cc2nn3c(-c4ccccc4OC)nnc3s2)cc1 do in these assays?
ClpP mod: -2.0%; gsp antagonist: 14%; D2 PAM: -5; Sfp PPTase inh: 7%; Menin-MLL FL inh: -1.8; TRPV1 potentiator: -5; gsp ag: 7%

Results for COc1ccccc1C(=O)Nc1ccc(C(=O)/C=C/c2cccs2)cc1 ?
ClpP mod: 0.3%; gsp antagonist: inconclusive; D2 PAM: -9; Sfp PPTase inh: inconclusive; Menin-MLL FL inh: 4.9; TRPV1 potentiator: -4; gsp ag: 16%

What do the screens show for `CCCc1cc(=O)oc2c(C)c(OCC(=O)c3ccc(N4CCCC4)cc3)ccc12`?
ClpP mod: -10%; gsp antagonist: 10%; D2 PAM: 29; Sfp PPTase inh: 1%; Menin-MLL FL inh: 1.8; TRPV1 potentiator: 0; gsp ag: 4%

How did Cc1cccc(C)c1N1CCN(C(=O)N2CCCCC2)CC1 do in these assays?
gsp antagonist: 0%; D2 PAM: -2; Sfp PPTase inh: -4%; Menin-MLL FL inh: -9.8; TRPV1 potentiator: -3; gsp ag: -1%

What do the screens show for `CCOc1ccc(OCCSc2ccc(S(=O)(=O)N3CCN(C)CC3)cn2)cc1`?
ClpP mod: 2.1%; gsp antagonist: -8%; D2 PAM: 1; TRPV1 potentiator: -20; gsp ag: 4%

Bioassay records from PubChem BioAssay.
